Compound activity from PubChem.
PV pol inh: poliovirus RdRp elongation inhibitors, primary screen, biochemical, fluorescence polarization, total intensity | % elongation, % (compound at 16.7 µg/mL) | 150,000 compounds, 0.66% hits | poliovirus polymerase elongation; active compounds read low | AID 588519, 2011 | Genome polyprotein (Poliovirus type 1 (strain Mahoney)), P03300; in the data active = % elongation below about 90%; note: some results filed as inactive read as strong as hits
MenB inh: M. tuberculosis MenB inhibitors, primary screen, biochemical, absorbance; inhibition, %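 (about 12 µg/mL by stock and volumes)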; MenB enzyme assay, absorbance read-out; some hits fall short of the stated cut; AID 540299, 2011; 100,000 compounds, 0.43% hits;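 active = mean of two replicates above 30%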;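 note: 0% = no compound and 100% = wells with inactive enzyme; the first replicate is given; strong numbers were not always called active; inactives centre near -10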
Target sequence (P9WNP5 whole entry, looked up): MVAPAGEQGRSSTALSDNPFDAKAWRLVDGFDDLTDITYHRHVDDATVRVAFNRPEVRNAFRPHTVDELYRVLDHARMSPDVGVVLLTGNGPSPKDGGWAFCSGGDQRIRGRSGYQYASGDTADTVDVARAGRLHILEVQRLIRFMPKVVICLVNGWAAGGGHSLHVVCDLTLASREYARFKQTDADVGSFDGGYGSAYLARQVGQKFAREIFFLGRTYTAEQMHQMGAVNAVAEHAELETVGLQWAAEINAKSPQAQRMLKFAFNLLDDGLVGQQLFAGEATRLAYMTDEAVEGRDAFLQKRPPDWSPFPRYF
Mtb MbtI inh: MbtI salicylate synthase inhibitors, primary screen, biochemical, fluorescence intensity; inhibition, %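 (about 17 µg/mL by stock and volumes)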; purified MbtI enzyme, fluorescence intensity read-out; 100,000 compounds, 0.89% hits;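 active = above 50% in both replicates, above 80% if mildly self-fluorescent; inactive = the rest, strongly fluorescent compounds included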;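 note: 0% = mean of negative and 100% = mean of positive controls; one replicate is shown; some compounds called inactive have numbers as strong as hits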
Target sequence (P9WFX0 whole entry, looked up): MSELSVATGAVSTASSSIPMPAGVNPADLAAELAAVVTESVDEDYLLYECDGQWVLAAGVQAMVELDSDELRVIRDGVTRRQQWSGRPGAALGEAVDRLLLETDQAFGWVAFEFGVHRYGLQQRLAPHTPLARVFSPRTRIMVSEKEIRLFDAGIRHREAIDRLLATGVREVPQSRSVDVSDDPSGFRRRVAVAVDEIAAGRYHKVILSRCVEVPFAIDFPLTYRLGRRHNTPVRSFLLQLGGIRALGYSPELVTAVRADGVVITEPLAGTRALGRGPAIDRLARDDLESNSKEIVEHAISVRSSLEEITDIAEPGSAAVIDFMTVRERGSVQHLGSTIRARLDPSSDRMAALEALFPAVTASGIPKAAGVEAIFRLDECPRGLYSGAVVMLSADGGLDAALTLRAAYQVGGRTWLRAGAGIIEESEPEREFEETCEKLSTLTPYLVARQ
PV pol inh intensity: recorded beside PV pol inh, whose call it bears; % elongation; measured here: total intensity read-out; formula for this scale not given here;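 total fluorescence in place of polarization; lower means less elongation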
The depositor's hits bear a star; . = no result given; & = joins results of further samples. Outcome played no part in choosing rows (roughly 1.8% active in at least one column).

SMILES	PV pol inh	PV pol inh intensity	MenB inh	Mtb MbtI inh
CC1CC(C)CN(S(=O)(=O)c2ccc(NC(=O)c3ccc(C#N)cc3)cc2)C1 (stereo not drawn)	105	111	-27	-2
Cc1[nH]c2ccccc2c1SCC(=O)N1CCCCC1	101	100	-17	1
Cc1ccc(S(=O)(=O)N(C)CC(=O)OCc2nc3ccc(Cl)cc3n2CCO)cc1	99	102	-26	6
O=C(Nc1cccc(-c2cn3cccnc3n2)c1)c1ccccc1C(F)(F)F	104	99	-2	103
Nc1nc(-c2ccccc2)cs1	105	100	8	.
Cc1c(C(=O)Nc2ccccc2)oc2ccccc12	102	104	.	0
OCc1ccc(-c2cccc(Cl)c2)o1	102	102	17	58
NC(N)=NS(=O)(=O)c1ccc(N/C=C2/CCc3ccccc3C2=O)cc1	103	105	-277	5
O=C1c2ccccc2C(=O)N1CC(O)COC1CCCCC1 (stereo not drawn)	100	105	-11	-28
O=C(CCCCn1c(=O)[nH]c2ccsc2c1=O)NCc1ccccc1	100	105	8	-13
CSc1nc2c(cc1C#N)CCC2	100	103	-43	-50
COc1ccc(Cl)cc1C(=O)NCCc1ccc(S(=O)(=O)NC(=O)NC2CCCCC2)cc1	101&98&102&101	105&104&102&103	-12&-7&-5	-7&-14&-4
O=C(NCc1ccccc1)C(Cc1ccccc1)NS(=O)(=O)c1ccc(Br)cc1 (stereo not drawn)	101	107	-2	-6
COc1ccccc1NC(=O)CC1S/C(=N\N=C(/C)c2ccccc2)NC1=O (stereo not drawn)	102	103	-17	3
O=C(CCc1c[nH]c2ccccc12)OCC(=O)c1cccc(Br)c1	100	103	.	-7
COCCN(Cc1cc2ccc(C)cc2[nH]c1=O)C(=O)c1ccccc1	103	102	-17	91
CCN1C(=O)C(=Cc2ccc(N3CCCC3)cc2)C(=O)N(CC)C1=S	101	102	-16	5
N#CCCn1cc(F)c(N)nc1=O	107	107	-4	.
CCCc1ccc(OC(=O)c2ccc(O)cc2Cl)cc1	103	99	-6	2
O=C(CN1CCCC1)N/N=C/c1c(O)ccc2ccccc12	109	118	-18	19
CCn1c(-c2ccccc2)c(C(=O)CC#N)c2ccccc21	107	103	.	-4
CCNC(=O)CNCc1c(C)nn(CC(C)C)c1Cl	91	88	2	8
O=C(CC1CCCC1)Nc1cccc(Br)c1	102	95	.	-10
NS(=O)(=O)c1ccccc1NC(=S)Nc1ccccc1S(N)(=O)=O	101	104	-5	-15
O=C(c1ccco1)N1N=C(c2c(-c3ccccc3)c3cc(Cl)ccc3[nH]c2=O)CC1c1ccco1 (stereo not drawn)	100	102	1	43

Further compounds:
SMILES	PV pol inh	PV pol inh intensity	MenB inh	Mtb MbtI inh
CC(C)(O)CNS(=O)(=O)c1ccccc1	105	105	-4	-18
COc1ccc2cc(C(=O)NCC(=O)O)sc(=O)c2c1OC	101	101	-35	0
Cc1cc(Nc2ccc(S(=O)(=O)N3CCOCC3)cc2)c2ccc(C(F)(F)F)cc2n1	.	.	-16	-6
N#C/C(=C1\CCCN1)c1ccccn1	101	107	.	2
Cc1noc(C)c1COC(=O)c1cc2c3ccccc3n(C)c2s1	106	98	-50	157
Cc1ccc2c(c1)c1c(n2C)C(C#N)CCC1 (stereo not drawn)	100	103	-17	-18
O=C(O)c1cc(C(=O)O)cc(-c2ccc(C=Nc3ccc4[nH]c(=O)[nH]c4c3)o2)c1	74	81	8	.
CN1C(=O)C(C(=O)Nc2ccccc2)C2CC1(C)Oc1ccccc12 (stereo not drawn)	102	101	16	1
O=C1CC(NC2CCN(c3ncccn3)CC2)C(=O)N1c1ccc(F)cc1 (stereo not drawn)	100	103	-16	5
CNCc1cc2ccccc2s1	96	104	9	.
CCc1cc2cc3c(cc2nc1SCC(=O)N1CCCCC1)OCO3	100	103	28	8
Cc1sc2ncnc(SCC(N)=O)c2c1C	103	102	30	5
Cc1cc(C2=Nn3cc(-c4ccccc4)nc3SC2)c(C)n1CC1CCCO1 (stereo not drawn)	89	108	-12	2
NCc1ccc2cc[nH]c(=O)c2c1	100	96	-6	55
CN(C)c1ccc(NC(=O)C2CC3CCCC(C2)C3=O)cc1 (stereo not drawn)	100	103	-23	-4
CC(C)=CC(=O)Nc1cc(Cl)ccc1C	100	103	6	-10
O=C1NCCCCC1NS(=O)(=O)c1cccc(C(F)(F)F)c1 (stereo not drawn)	103	101	-3	18
COC(CNC(=S)c1ccc(NC(C)=O)cc1)OC	96	99	-24	44
Cn1c(=S)[nH]c2ccccc2c1=O	102	104	-10	7
COc1ccc(S(=O)(=O)N(C)Cc2ccccc2)cc1OC	100	100	-6	-3
CCOc1ccc2c3c(c(=O)oc2c1C)CCC3	103	96	-27	-5
Cc1nc(-c2ccc(C(=O)O)cc2)cs1	103	101	28*	20
CCc1nc2ccc(C(=O)NCCc3cnc[nH]3)cc2nc1CC	102	98	-30	-3
CSc1cc(C(F)(F)F)c(C(=O)Nc2c(C)cccc2C)cn1	99	107	6	-16
Cc1[nH]c(=O)[nH]c(=O)c1NCCO	101	100	8	2

More results follow:
SMILES	PV pol inh	PV pol inh intensity	MenB inh	Mtb MbtI inh
CCOC(=O)c1cc2c(ccn2C)n1CC(=O)N1CCCC(C)C1 (stereo not drawn)	102	105	-63	7
O=C(CSC1=NCCS1)Nc1cc(Cl)ccc1N1CCOCC1	99	101	-18	-22
N#CSC1CC(=O)N(c2ccc(F)cc2)C1=O (stereo not drawn)	103	102	-11	99*
c1ccc(NC2=Nc3ccccc3CS2)cc1	100	95	.	-3
CC(C)c1cccc(C(C)C)c1NC(=O)C(C)(C)C	105	111	2	.
O=C(O)COc1cc(O)c2c(=O)c(-c3ccc4c(c3)OCCO4)coc2c1	105	103	13	10
S=C(Nc1ccccc1)N1CCOCC1	103	101	4	-18
Cn1c(NN)nc2ccccc2c1=O	104	103	17	35
COC(CN(C)S(=O)(=O)c1ccc(N2CCCCS2(=O)=O)cc1)OC	100	102	-25	-1
O=C(O)C1C2C=CC(C2)C1C(=O)NCCN1CCOCC1 (stereo not drawn)	104	102	-174	-6
CC(=O)N(c1ccccc1)c1nc(C)cc(C)c1C#N	100	109	-21	.
NC(=O)C1CCN(C(=O)c2cccc(Cl)c2)CC1	102	107	-5	-15
Cc1ccc(C2=CSC3=C(C(=O)c4ccc(S(=O)(=O)N(C)C)cc4)CCN23)cc1	109	114	-13	-6
CCCCn1c(-c2cc3c(s2)CCC3)nc2cc(S(N)(=O)=O)ccc21	91	87	-9	105
Cc1ccccc1OCCN1C(=O)NC(CC(C)C)C1=O (stereo not drawn)	103	102	-23	-11
CCn1c(NCc2cccs2)nc2ccccc21	104	106	.	-3
CC(C)n1c(-c2ccncc2)n[nH]c1=S	.	.	10	94*
O=C1CCC(=O)N1OCC(=O)N(c1ccccc1)c1ccccc1	99	98	-21	1
Cc1ccccc1Nc1nc(N)nc(CSc2nc3scc(-c4cccs4)c3c(=O)[nH]2)n1	115	123	-54	6
N#Cc1ccccc1S(=O)(=O)NCC(=O)NC1CCCc2ccccc21 (stereo not drawn)	106	109	-8	-6
C#CCN=Cc1c(O)n(CC)c(=S)n(CC)c1=O	104	106	-21	-1
CC1(C)Cc2c(sc3nc(N4N=N4)nc(NCCO)c23)CO1	100	102	-55	160
CCc1oc(C(=O)O)cc1CN	104	105	-17	-4
CC(C)CCN1NC2(CCCCC2)NC1=S	101	106	1	.
CC(C)Sc1nc2ccccc2n1CC(=O)N1c2ccccc2CC1C (stereo not drawn)	96	101	8	10

Continued:
SMILES	PV pol inh	PV pol inh intensity	MenB inh	Mtb MbtI inh
FC(F)(F)c1cccc(OCCCn2cncn2)c1	99	101	-6	-5
O=C(Cn1cnc2ccccc2c1=O)Nc1ccc(S(=O)(=O)Nc2nccs2)cc1	105	103	-42	0
CC(=O)Nc1ccc(C2=NNC(=NC(C)C)SC2)cc1	93	97	-13	137
Cc1nn(-c2ccc(F)cc2)c(-n2cccc2)c1C(=O)N(C)Cc1ccccc1	101	100	-7	-24
CCNC(=O)c1ccc2c(c1)sc1nc(-c3ccc(CC)cc3)cn12	102	104	-13	-53
Fc1ccc(-c2noc(COc3ncnc4ccccc34)n2)cc1	111	122	-18	-40
COc1cccc(C(=O)NCCN2CCOCC2)c1	101	96	-27	4
CCN(CC)CC(O)COc1ccc(OCc2ccccc2)cc1 (stereo not drawn)	102	100	-1	-4
Cn1c(C(O)c2ccccc2)nc2ccccc21 (stereo not drawn)	102	106	-21	-7
COc1ccc(C(=O)COC(=O)Cn2c(C)csc2=O)c(OC)c1	101	98	-4	4
O=C(OCc1ccccc1Cl)c1ccco1	104	96	.	5
CCOc1ccc(Nc2nc(C3(C)CC4(CC(C)(C)OC4=O)C(=O)O3)cs2)cc1 (stereo not drawn)	102	103	-14	-16
CCc1ccc(C2C(C(=O)c3ccco3)=C(O)C(=O)N2CC2CCCO2)cc1 (stereo not drawn)	105	110	-4	.
S=C(NCCN1CCOCC1)NCc1ccco1	102	103	-36	-2
Cc1cc2n(n1)CCCN2CC(=O)NCCc1ccc(S(N)(=O)=O)cc1	100	101	8	-8
Cc1ccc(S(=O)(=O)N2C3C=CC(C3)C2C(=O)O)cc1 (stereo not drawn)	100	97	15	6
COc1cccc(NC(=O)CCn2nc(-c3ccccc3OC)c3c(C)cc(C)nc32)c1	104	111	-13	-18
CC(=Nc1ccccc1)C1=C(O)CSC1=O	100&99	105&102	-5	-6&8
CC(C)C(=O)Nc1nc(-c2ccccc2)cs1	102	106	.	2
CN(Cc1ccccc1)C(=O)Cn1cc(Br)ccc1=O	103	99	-1	15
CC1=C(C(=O)Nc2ccc(C)cc2)C2(CCCCCC2)OC1=O	100	102	-1	-11
COc1ccc(CC(=O)N2CCc3ccccc32)cc1	108	110	-15	.
CCn1c(C(C)C)n[nH]c1=S	.	.	-18	3
Cc1no[n+]([O-])c1COc1ccccc1/C=C1\NC(=S)NC1=O	104	103	8	2
FC(F)(F)c1cccc(CSc2ncnc3c2oc2ccccc23)c1	100	95	13	-3

The list goes on:
SMILES	PV pol inh	PV pol inh intensity	MenB inh	Mtb MbtI inh
O=C(Nc1cccc(F)c1)NC1(C(=O)NCC2CCCO2)CCCCC1 (stereo not drawn)	101	102	-35	-16
N#CC1=C(N)Oc2ccc3ccccc3c2C1c1ccccc1 (stereo not drawn)	105	108	.	-15
O=C(c1cn(-c2ccccc2)nc1-c1cccnc1)N1CCCCC1	100	102	26	6
O=C(O)CCc1nc2cc(Cl)ccc2oc1=O	101	102	-6	6
COC(=O)c1ccc(COC(=O)Cc2coc3cc4c(cc23)CCC4)o1	102	108	-50	-6
CCOc1ccc(NC(=O)C2CC(=O)N(CCCN3CC(C(=O)Nc4ccc(OCC)cc4)CC3=O)C2)cc1 (stereo not drawn)	101	104	5	0
COc1ccc2[nH]c3c(c2c1)CC(C)NC3=O (stereo not drawn)	102	105	-3	.
Cc1nnc(SC(C(N)=O)C(N)=O)s1	99	105	-8	5
Cc1cccc(C)c1NC1=NC2CS(=O)(=O)CC2S1 (stereo not drawn)	101	97	-20	36
N#Cc1ccc(OCC(=O)Nc2cccnc2Cl)cc1	99	96	.	-13
Cc1cc(C)n(C(=O)c2ccc(S(=O)(=O)N3CCCCCC3)cc2)n1	99	105	-9	-10
CN(C)C(=O)N1c2ccccc2Sc2ccccc21	109	104	-18	-14
Cc1oc2ccc(O)c(CN3CCC(C)CC3)c2c1C(=O)Nc1cccc(C(F)(F)F)c1	104	99	-33	1
c1ccc2c(c1)nnn2CNc1nonc1-c1ncon1	104	106	-2	.
O=C(NCc1ccccc1Cl)c1ccc2nc(N3CCOCC3)sc2c1	102	101	-2	1
CC1=C(C(=O)Nc2ccc(Cl)cc2C(=O)NC2CCCC2)SCCO1	103	106	5	-3
Nc1nnc(SCC(=O)Nc2nnc(C(F)(F)F)s2)s1	103	99	-46	8
O=S1(=O)CCC(S(=O)(=O)N2CCOCC2)C1 (stereo not drawn)	105	102	-21	.
